From PubChem
HSV augment – increases HSV replication in cells; HSV replication augmentation in cells, fold increase; AID 1956; maximum fold increase; 220,000 tested, 0.005% active;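 active means peak rise of 1.5-fold or more in the series; inconclusive means self-fluorescent or not available for retest; tested in PC3 cells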;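 further: first round at 10 µM; read as green reporter fluorescence; hits show the peak of a series up to 25 µM; 1 = signal of infected wells without compound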
Insulin prom inh – TRM-6 insulin promoter activity inhibition. 130,000 tested, 0.9% active. TRM-6 cells (human fetal islet line), insulin promoter-eGFP reporter, imaging; reporter expression induced with tamoxifen. inhibition, % at 2 µM;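 active means inhibition above the mean plus 3 SD, with well images judged a real hit on visual review, cut at about 60% in these data, passing the limit was not always enough; inconclusive means inhibition over the cutoff but images rejected on review; inactive means inhibition not above the cutoff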
RGS16-Gao HTS – modulates binding between human RGS16 and Galphao; AID 1441; bead-based flow cytometry RGS16-Galphao binding, fluorescence; actives lie on both sides; binding response (% of control), % at 10 µM; 220,000 tested, 0.38% active;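 active means below 25% or above 175%, edge rows of some plates excepted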;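 further: Galphao activated by GDP with aluminum fluoride before binding; 100% = wells without compound and 0% = beads without RGS; some results beyond the cut were filed as inactive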
GALR2 agonist – activates the human galanin receptor 2 | O43603 | GALR2-expressing cells, agonist activation read-out | activation, %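 (tested at 5 µM)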 | 140,000 tested, 0.48% active;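 active means above mean plus 3 SD of all compounds, about 5% in these data, not always enough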;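 further: 0% = vehicle buffer wells and 100% = reference agonist at full effect; tested in CHO reporter cells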
PKD1 inh – PKD1 (human) kinase inhibition | Q15139 | PKD1 kinase fluorescence polarization assay | inhibition, %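 (about 10 µM by stock and volumes)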 | 200,000 tested, 0.056% active | AID 797;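 active means inhibition of 50% or more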;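 further: controls were vehicle for no effect and a reference inhibitor for full effect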
Target sequence (Q15139 whole entry, looked up): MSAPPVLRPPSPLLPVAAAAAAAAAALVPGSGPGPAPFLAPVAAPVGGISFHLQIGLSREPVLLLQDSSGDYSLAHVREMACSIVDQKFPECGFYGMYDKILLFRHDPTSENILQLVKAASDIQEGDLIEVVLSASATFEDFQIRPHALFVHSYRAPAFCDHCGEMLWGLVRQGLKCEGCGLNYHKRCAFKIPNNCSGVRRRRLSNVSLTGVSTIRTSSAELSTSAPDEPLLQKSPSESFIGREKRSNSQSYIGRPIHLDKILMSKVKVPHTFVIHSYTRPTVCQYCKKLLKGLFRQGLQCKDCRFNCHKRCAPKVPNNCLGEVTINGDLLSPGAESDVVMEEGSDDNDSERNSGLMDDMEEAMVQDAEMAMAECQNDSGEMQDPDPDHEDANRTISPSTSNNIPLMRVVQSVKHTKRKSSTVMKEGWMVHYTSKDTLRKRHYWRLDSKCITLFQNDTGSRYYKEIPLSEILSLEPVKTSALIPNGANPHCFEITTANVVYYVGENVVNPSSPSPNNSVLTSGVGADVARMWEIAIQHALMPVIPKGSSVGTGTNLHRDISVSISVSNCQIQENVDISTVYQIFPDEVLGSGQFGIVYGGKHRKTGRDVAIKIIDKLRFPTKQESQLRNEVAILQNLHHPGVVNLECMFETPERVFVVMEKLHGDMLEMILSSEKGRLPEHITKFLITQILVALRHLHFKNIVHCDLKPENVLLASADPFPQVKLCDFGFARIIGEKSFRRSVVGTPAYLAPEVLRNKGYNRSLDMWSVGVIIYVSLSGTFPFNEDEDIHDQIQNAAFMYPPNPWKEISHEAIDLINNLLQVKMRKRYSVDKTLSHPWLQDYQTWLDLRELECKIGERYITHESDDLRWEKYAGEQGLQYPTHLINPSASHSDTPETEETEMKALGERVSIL
Insulin prom inh cell count – recorded beside Insulin prom inh, whose call it bears; normalized cell count, %; measured here: cell count, toxicity; reference of the scale not given here;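 cells exposed to compound for 48 h; stained nuclei by imaging scaled within each plate; lower means fewer cells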
HSV augment primary fold – second read-out of HSV augment, no call of its own (marks repeat the call); fold increase; compound at 10 µM; measured here: primary screen fold increase 10 uM; tested in PC3 cells;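 GFP signal in the first replicate; 1 = infected wells without compound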
* marks the source's active call; other numbers are inactive results; i = inactive; ? = inconclusive; / = not tested or not shown; [ ] = dose if it differs, or a comment.

SMILES,HSV augment,HSV augment primary fold,Insulin prom inh,Insulin prom inh cell count,RGS16-Gao HTS,GALR2 agonist,PKD1 inh
O=C(COC(=O)Cn1cnc2ccccc2c1=O)NCCC1=CCCCC1,i,0.97,38,108,87,-0.8,-6
CC(C)(CO)NCC(O)COc1ccc2c(c1)CCC2 (stereo not given),i,0.8,0,100,101,-1.4,-7
CCn1ncc(Br)c1C(=O)Nc1cc([N+](=O)[O-])ccc1C,/,/,17,109,82,-1.0,-10
Cc1ccc(Sc2c(C=O)c3ccccc3n2C)cc1,i,0.86,41,95,95,-1.3,5
O=C1c2ccccc2C(=O)N1Cc1cc(-c2ccc(Cl)cc2)no1,i,0.97,/,/,/,-2.5,0
O=C(Oc1cccc([N+](=O)[O-])c1)c1cc(-c2ccccc2)nc2ccccc12,i,0.89,20,116,82,-2.6,-7
CC(C)S(=O)(=O)N1CCCC(C(=O)c2cccc(Cl)c2)C1 (stereo not given),i,0.92,/,/,65,/,-5
COc1ccc(OC)c(NC(=O)C2CCCC2)c1,i,0.81,50,109,101,-3.2,-9
CSc1nc(N(C)C)nc(N2CC(=O)N(CCNS(=O)(=O)c3ccc(C)cc3)C2=N)n1,i,0.86,/,/,110,1.3,-3
Cc1cc(-c2onc(C)c2C(=O)Oc2ccc(Cl)cc2)no1,i,1.1,/,/,101,/,/
O=C(N/N=C/c1ccco1)c1cc(C2CC2)nc2ccccc12,i,0.89,-17,97,103,0.2,9
COc1ccc(CC(=O)NCc2cn3ccsc3n2)cc1,i,1,/,/,105,-1.8,2
CCc1ccc(N=c2c([N+](=O)[O-])nn(-c3ccc4c(c3)OCCO4)n2O)cc1,i,0.93,20,70,104,/,-4
O=c1c2ccccc2nc2n1-c1ccccc1CCC2,i,0.92,-14,140,97,-2.6,-6
CCc1ccc(C(=O)Nc2cc3c(cc2Cl)OCCCO3)cc1,i,1,-55,34,105,-1.0,-10
CCOC(=O)c1cc(CC)sc1NC(=O)COC(=O)c1cc[n+]([O-])cc1,i,0.99,/,/,100,/,4
C[C@]12CC[C@@H]3c4ccc(O[C@@H]5O[C@H](C(=O)O)[C@@H](O)[C@H](O)[C@H]5O)cc4CC[C@H]3[C@@H]1C[C@@H](O)[C@@H]2O,i,0.83,/,/,109,/,/
O=C(CN1C(=O)C2CC=CCC2C1=O)OCc1cc(=O)n2cc(Br)ccc2n1 (stereo not given),i,0.9,/,/,103,/,2
O=C(Nc1ccc(-c2nc3ccccc3s2)c(OC(=O)c2ccccc2)c1)c1ccccc1,i,1.1,-38,129,103,0.4,-2
COc1ccc(/C=N/n2cnc3c([nH]c4ccc(F)cc43)c2=O)cc1CN1CCCC1,i,0.74,/,/,97,/,/

One compound at a time (already shown). Order of screens: HSV augment	HSV augment primary fold	Insulin prom inh	Insulin prom inh cell count	RGS16-Gao HTS	GALR2 agonist	PKD1 inh
`CC(C)(CO)NCC(O)COc1ccc2c(c1)CCC2` (stereo not given) in the list: i	0.8	0	100	101	-1.4	-7
`COc1ccc(OC)c(NC(=O)C2CCCC2)c1` in the list: i	0.81	50	109	101	-3.2	-9
`O=C(Nc1ccc(-c2nc3ccccc3s2)c(OC(=O)c2ccccc2)c1)c1ccccc1` in the list: i	1.1	-38	129	103	0.4	-2

Additional structures
SMILES,HSV augment,HSV augment primary fold,Insulin prom inh,Insulin prom inh cell count,RGS16-Gao HTS,GALR2 agonist,PKD1 inh
Cc1nn(Cc2cccc(C(=O)Nc3ccn(Cc4ccccc4F)n3)c2)c(C)c1[N+](=O)[O-],i,1,11,111,79,-1.8,-1
Cc1ccc(Cl)cc1N1CCN(CC(=O)Nc2ccc(CN3CCCCC3)cc2)CC1,i,0.7,60,104,106,-0.9,2
O=C1N=C(N2CCN(c3cccc4ccccc34)CC2)S/C1=C/c1cccs1,i,0.95,19,89,103,-2.3,1
COc1ccccc1CC1(C)NC(=O)N(CC(=O)N2CCc3ccccc3C2)C1=O (stereo not given),i,0.68,/,/,104,-1.5,2
CCn1cc(S(=O)(=O)CC(=O)Nc2ccc(C)cc2)c2ccccc21,i,0.9,/,/,105,-0.2,-3
CCOC(=O)CCNCC1COc2ccccc2O1 (stereo not given),i,0.92,-9,92,108,-0.8,-3
C=CC(=O)NC(C)(C)CCN1CCOCC1,i,1.1,-7,106,110,/,-4
COC(=O)c1ccccc1NC(=S)NC(=O)c1ccccc1,i,1,-20,72,105,-0.9,-7
COc1cc([N+](=O)[O-])ccc1NC(=O)CSc1nccn1C,i,1.2,-18,118,102,/,4
N/C(=N\OC(=O)COc1ccc2ccccc2c1)c1ccncc1,i,1,/,/,115,/,4
Cc1nccc(-c2cccc(NC(=O)Nc3ccc(Cl)cc3)c2)n1,i,0.96,/,/,97,/,/
O=c1c(Cl)c2oc3ccccc3nc-2c2ccccc12,?,/,i,82,82,/,-3
CCN(CC(=O)NC1CCS(=O)(=O)C1)S(=O)(=O)c1cccc(C(C)=O)c1 (stereo not given),i,0.99,/,/,101,/,3
NC(=O)CC(NC(=O)c1cccc(Br)c1)c1ccc(NCCN2CCOCC2)c([N+](=O)[O-])c1 (stereo not given),i,0.89,/,/,99,/,/
CC1CCN(CC(=O)n2c3c(c4ccccc42)CCCC3)CC1,i,0.88,57,127,70,-1.2,-2
COC(=O)c1sc2ccccc2c1NC(=O)c1cccs1,i,0.65,-4,128,41,4.7,4
O=C(COC(=O)CNC(=O)c1ccco1)NCCN1C(=O)CSC1=O,i,0.89,25,80,110,-0.7,7
Cc1ccnc(NS(=O)(=O)c2ccc(NC(=O)C3CCCNC3=O)cc2)n1 (stereo not given),i,0.87,-33,99,98,-2.5,3
Cc1cccc(NC(=O)CSc2nnc(-c3n[nH]c4ccccc34)o2)c1,i,0.95,61,8,103,-1.7,-3
COC(=O)c1noc(-c2ccc(OC)cc2)n1,i,1,-68,98,103,0.5,-5
O=C1CC(NCC2CCCO2)C(=O)N1c1ccc(Cl)cc1 (stereo not given),i,0.96,/,/,99,/,1
Cc1cc(N2CCN(C)CC2)nc2ccc(NC(=S)N3CCN(c4ccc(F)cc4)CC3)cc12,i,0.94,7,83,102,/,-6
Cc1cc2ccccc2c(=O)n1CC(=O)NC1CCCCCC1,i,0.97,50,123,91,-3.5,2
CC1=CC(C)(C)N(S(=O)(=O)c2ccc(C)cc2)c2ccc(C)cc21,i,0.56,51,92,101,0.5,-10
Cc1ccc(S(=O)(=O)Nc2cccc(NC(=O)CN3CCCCC3)c2)cc1,i,0.99,0,214,105,-1.1,-3
COc1cc(C(=O)NCCOc2ccc(F)cc2)c(Br)c(OC)c1OC,i,1,43,70,103,/,4
O=C(CCCc1ccccc1)NCc1ccccc1,i,1,/,/,113,/,-7
CCOC(=O)c1c(NC(=O)/C=C/c2ccc(C)o2)sc(C)c1C,i,0.93,19,132,105,0.6,-12
CC1(C)CC(C(CC(=O)Nc2nccs2)c2ccccc2)CCO1 (stereo not given),i,0.99,11,89,98,-2.2,-16
Cc1ccccc1OCc1nc2ccccc2[nH]1,i,1,/,/,104,/,-8
Cc1ccccc1OCC(O)CN(Cc1ccccc1O)C1CCCCC1 (stereo not given),i,0.92,/,/,105,/,8
Cc1cccc(NC(=O)c2ccccc2NC(=O)CCC(=O)O)c1,i,0.99,79*,52*,96,-1.1,0
O=C(NCc1ccc(Cl)cc1)c1cc(-c2ccco2)on1,/,/,/,/,102,-0.9,3
CC(C)=CCOc1ccc2ccc(=O)oc2c1,i,1,/,/,108,/,3
Cc1c(NC(=O)C(C)OC(=O)c2ccc([N+](=O)[O-])s2)c(=O)n(-c2ccccc2)n1C (stereo not given),i,1,-136,27,140,/,-2
CC(C)(CC(=O)N1CCN(c2ccc(Cl)cc2)CC1)CC1=NS(=O)(=O)c2ccccc2N1,/,/,-100,114,103,2.0,-6
CC(=O)c1ccc(NC(=O)CSc2nnc(-c3ccco3)c(-c3ccco3)n2)cc1,i,0.98,/,/,90,/,5
CCCN1C(=O)SC(CC(=O)Nc2ccccc2)C1=O (stereo not given),i,1,-79,64,99,-0.8,-2
O=C(NCc1ccccn1)C1C2C=CC(C2)C1C(=O)Nc1ccc(F)cc1 (stereo not given),i,1,20,140,109,-3.6,-8
CCOC(=O)COc1ccc(/C=C/[N+](=O)[O-])c(OCC(=O)OCC)c1,i,0.66,/,/,98,-1.8,11
CCOC(=O)COc1cnc2ccccc2n1,i,0.98,/,/,103,/,-1
Cc1nc(CS(=O)(=O)c2ccccc2)cc(Sc2ccc(Cl)cc2)n1,i,0.9,-50,86,98,-1.0,0
Cc1nnc(SCc2ccc([N+](=O)[O-])cc2)o1,i,0.89,10,97,103,/,3
O=C(N1CCN(Cc2ccccc2)CC1)C12CC3CC(CC(C3)C1)C2,i,0.95,11,108,/,-1.2,-12
O=C(O)c1cccc(NC(=O)C2C3C=CC(C3)C2C(=O)O)c1 (stereo not given),i,0.99,-5,72,109,-1.7,-7
C=CCn1c(/N=C/c2ccc(N(C)C)cc2)nc2ccccc21,i,1.2,/,/,106,-2.5,-2
Cc1cc(C)n(-c2ccc(Cl)c(C(=O)Nc3ccc(OC(F)(F)F)cc3)n2)n1,i,0.99,47,140,98,-1.8,-20
CCC(=O)NC(=S)Nc1cccc(NC(=O)c2ccc(Cl)cc2Cl)c1,i,0.94,-26,106,99,-4.9,5
Cc1onc(-c2c(Cl)cccc2Cl)c1C(=O)N1CCN(c2ncccn2)CC1,i,1.1,27,105,101,/,2
CCOC(=O)COc1c(/C=N\OC)cc(Cl)cc1OC,i,0.93,-136,131,108,/,-3
Cn1c(SCc2ccc([N+](=O)[O-])cc2)nnc1-c1cccnc1,i,1,/,/,101,/,-2
CCOCCCNC(=O)C1CCN(S(=O)(=O)N(CC(C)C)CC(C)C)CC1,i,1.1,/,/,86,-1.7,-6
CS(=O)(=O)N1CCC(C(=O)NCc2ccc(Cl)cc2Cl)CC1,i,0.97,6,148,94,/,0
Cc1ccc(C)c(N(Cc2ccccc2F)S(C)(=O)=O)c1,i,1,-28,141,72,-1.5,2
Cc1ccc(-n2nc(C)c3c2OC(N)=C(C#N)C3c2ccoc2)cc1 (stereo not given),i,1.2,/,/,98,-1.9,0
O=C(c1ccccc1)N1CCN(Cc2ccccc2)CC1,i,0.91,-60,72,109,-0.5,-10
Nc1nnc(SCc2ccc(F)cc2)n1-c1ccccc1,i,0.98,24,141,100,-2.0,-6
CCC(=O)c1ccc(N2CCN(C(=O)c3ccccc3)CC2)c(F)c1,i,0.74,/,/,118,/,-4
O=C(c1oc2ccccc2c1N1CCCCC1)N1CCCCC1,i,0.88,7,137,102,-1.8,-1
O=C(C1CCCO1)N(Cc1ccccc1)c1ccccc1 (stereo not given),i,0.88,6,133,103,-1.1,-7

(cont.)
SMILES,HSV augment,HSV augment primary fold,Insulin prom inh,Insulin prom inh cell count,RGS16-Gao HTS,GALR2 agonist,PKD1 inh
CCOC(=O)Cn1nnc(-c2ccccc2)n1,i,1.1,-362,80,106,-3.0,-5
CCNC(=O)C(Sc1ccccc1)c1ccccc1 (stereo not given),i,0.92,-280,96,252*[activator],-0.4,-1
COC(=O)CSc1nc(N)c(C#N)c(CC(C)C)c1C#N,i,0.97,-28,86,70,-2.1,-14
COc1ccc(NC(=O)C/C(C)=N/NC(=O)C(=O)NC(C)C)c(OC)c1,i,0.95,11,114,111,/,-7
CCOC(=O)CN(C(=O)CSc1nnc(-c2cccc(OC)c2)o1)c1ccc(F)cc1,i,0.73,/,/,104,-2.1,1
COc1ccc(COC(=O)N/C=C/c2ccco2)cc1,i,1.1,/,/,89,/,0
Cc1ccc(SCC(=O)Nc2ccc(S(=O)(=O)Nc3ncccn3)cc2)cc1,i,1.2,/,/,108,/,-4
Cc1cccc(NC2=NC(=S)N(c3ccc(C(=O)O)cc3)C23CCCCC3)c1,/,/,-29,96,97,0.8,-12
Cc1cc(C)n(Cc2nc3ccccc3n2C)n1,i,0.96,-14,100,101,-0.6,4
CC(C)CN(CC(C)C)S(=O)(=O)N1CCC(C(=O)NCCc2ccc(Cl)cc2)CC1,i,0.71,-13,121,102,-2.2,-7
